# NS1 inh – influenza NS1 inhibition; S. cerevisiae slowed by influenza A NS1, growth recovery by OD600; Potency, µM (doses to about 46.1 µM), for the others: at the top dose activity, positive = more growth; 270,000 tested, 0.4% active; AID 2326; note: actives are rising curves; nearly all actives have a fitted effect of over 50% in size
#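 Read-out: OD600 growth recovery of NS1-expressing budding yeast. Cells grown overnight at 30C in -URA glucose medium, washed, resuspended and diluted 1:100 in 2% galactose assay medium, pH 6.0. Same strain lacking NS1 served as positive control.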
# LASV entry inh – Lassa virus entry inhibition. Lassa virus pseudotype entry inhibition, cell reporter; control for the full effect not named in the record. Potency, µM (top dose mostly 37.9 µM), for inactives: top-dose activity change, negative = inhibition, most hits filed as inhibitors. 300,000 tested, 1.2% active; active means well fitted inhibition curve with a large enough effect; inconclusive means small, poorly fitted or top-dose-only effect, or effect the other way; inactive means flat fitted curve, though single readings scatter; tested in HEK293 cells; note: % is set by controls: 0 for no effect and ±100 for the full control effect; nearly all actives have a fitted effect of over 50% in size; luciferase read-out
# SARS PLP yeast – blocks SARS-CoV papain-like protease in a yeast assay; S. cerevisiae expressing SARS-CoV PLpro, growth rescue; control for the full effect not named in the record; Potency, µM (top dose mostly 32.9 µM), for the others: at the top dose activity, positive = growth rescue; 330,000 tested, 0.19% active; AID 485353; note: 0% is about no effect; nearly all actives have a fitted effect of over 55% in size; growth read by luminescence after 48 h
# Cruzain noTriton – blocks cruzain activity in detergent-free assay. P25779. purified cruzain, Z-FR-AMC fluorescence, no detergent. Potency, µM, without a hit: max response, negative = inhibition, usual class: inhibitors. 200,000 tested, 2.3% active. AID 1476; active = well fitted curve in the direction sought with a large enough effect; inconclusive = small, poorly fitted or top-dose-only effect, or another doubt; inactive = no such curve, though single readings can be large; an effect the other way counts as inactive or inconclusive;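 note: plate controls were enzyme without inhibitor for no effect and buffer without enzyme for full effect; nearly all actives have a fitted effect of over 40% in size; top concentration of the series not given in the record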
# Target sequence (P25779 123-467 limits assumed): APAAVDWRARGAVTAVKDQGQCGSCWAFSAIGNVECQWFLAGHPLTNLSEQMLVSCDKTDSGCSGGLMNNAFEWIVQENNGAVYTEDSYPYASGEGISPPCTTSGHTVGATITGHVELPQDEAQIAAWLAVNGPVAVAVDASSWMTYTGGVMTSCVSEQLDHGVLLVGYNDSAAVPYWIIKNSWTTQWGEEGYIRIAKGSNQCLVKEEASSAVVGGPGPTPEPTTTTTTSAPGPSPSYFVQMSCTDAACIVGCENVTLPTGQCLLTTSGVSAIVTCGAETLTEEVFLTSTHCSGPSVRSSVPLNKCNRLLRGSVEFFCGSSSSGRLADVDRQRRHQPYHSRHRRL
#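 Purified cruzain at 1.5 nM, pre-incubated 15 min with compound at room temperature in 100 mM sodium acetate pH 5.5, 5 mM DTT, 0.00005% Triton X-100. Reaction started with 2 uM Z-FR-AMC; AMC fluorescence increase over 60 s gives rate.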
# Cruzain Triton – blocks cruzain activity in presence of Triton detergent. purified cruzain, Z-FR-AMC fluorescence, 0.01% Triton. 200,000 tested, 0.43% active. Potency, µM, for inactives: max response, negative = inhibition, most hits filed as inhibitors; active = well fitted curve in the direction sought with a large enough effect; inconclusive = small, poorly fitted or top-dose-only effect, or another doubt; inactive = no such curve, though single readings can be large; an effect the other way counts as inactive or inconclusive;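 note: plate controls were neutral wells for no effect and buffer without enzyme for full effect; nearly all actives have a fitted effect of over 40% in size; top concentration of the series not given in the record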
#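 Read-out: AMC fluorescence (360 nm excitation, 450 nm emission), four reads over 2 min, first-to-third difference used. Conditions: cruzain 1.5 nM, Z-FR-AMC 2 uM, pH 5.5 acetate, 5 mM DTT, 0.01% Triton X-100.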
# 2A StopGo – lowers the luciferase signal of an FMDV 2A StopGo reporter; Potency, µM (titrated, usually from 57.9 µM), without a hit: at the highest dose signal change, negative = less light; 410,000 tested, 1.2% active; AID 1159524; human cells with a luciferase reporter of 2A StopGo recoding; control for the full effect not named in the record; active = well fitted falling curve with a large enough effect; inconclusive = small, poorly fitted or top-dose-only effect; inactive = no such curve, though single readings can be large or run the other way; tested in HEK293T cells; note: % is set by controls: 0 for no effect and ±100 for the full control effect; nearly all actives have a fitted effect of over 45% in size; luciferase light after 4 h
# MARV entry inh – blocks Marburg virus binding to or entry into cells; Potency, µM (highest dose often 37.8 µM), without a hit: at the highest dose activity change, negative = inhibition, most hits filed as inhibitors; Marburg virus pseudotyped entry inhibition, cell reporter; control for the full effect not named in the record; about a third of the inactives were read at about 46 µM; 300,000 tested, 1.8% active; active = well fitted inhibition curve with a large enough effect; inconclusive = small, poorly fitted or top-dose-only effect, or effect the other way; inactive = flat fitted curve, though single readings scatter; tested in HEK293 cells; about a fifth of its hits are not listed in these tables; note: % is set by controls: 0 for no effect and ±100 for the full control effect; luciferase read-out
# RE007 growth inh – less growth of the S. pombe RE007 Vpr strain | 360,000 tested, 0.21% active | Potency, µM (highest dose often 92.2 µM), without a hit: at the top dose activity change, negative = less growth | S. pombe RE007 Vpr strain, BacTiter-Glo ATP luminescence, 24 h; control for the full effect not named in the record; active = well fitted falling curve with a large enough effect; inconclusive = small, poorly fitted or top-dose-only effect; inactive = no such curve, though single readings can be large or run the other way;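 note: % is set by controls: 0 for no effect and ±100 for the full control effect; nearly all actives have a fitted effect of over 50% in size; the assay follows cell death caused by Vpr and the record does not say whether a fall means rescue or toxicity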
#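 Fission yeast RE007 carrying one integrated HIV-1 vpr copy, seeded at OD 0.01 in PMG+AL medium with 23 nL pinned compound. Grown 24 h at 30 degrees; viability read by BacTiter-Glo luminescence after 5 min.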
# * = called active by the depositor; ? = inconclusive; nt = no result given; [ ] = remark or other dose. Unless noted, calls come from the whole dose curve; as a rule, active means well fitted rising curve with a large enough effect; inconclusive means small, poorly fitted or top-dose-only effect; inactive means no such curve, though single readings can be large or run the other way. Potency is the fitted concentration of half-maximal effect.
SMILES,NS1 inh,LASV entry inh,SARS PLP yeast,Cruzain noTriton,Cruzain Triton,2A StopGo,MARV entry inh,RE007 growth inh
COc1cc(F)ccc1S(=O)(=O)n1c(C)nc2ccccc21,-21%,nt,3%,nt,nt,-14%,nt,-19%
O=C(O)c1ccc(-n2cccc2/C=C2/NC(=O)N(c3ccccc3)C2=O)cc1,1%,nt,-2%,nt,nt,-14%,nt,-3%
Cc1ccc(C(=O)N2C(=O)C(c3ccccc3)Oc3ccccc32)cc1 (stereo not drawn),-53%,?,-3%,nt,nt,7%,7.9µM*,24%
CC(C)C(=O)N1CCN(c2ccc(NC(=O)c3ccc4c(c3)OCCO4)cc2)CC1,-1%,0%,-1%,nt,nt,-30%,-20%,-1%
CCc1ccccc1NC(=O)CC(NCc1ccccc1)C(=O)O (stereo not drawn),-6%,nt,10%,nt,nt,-23%,nt,5%
Cc1ccc(C)c(CN2C(=O)c3ccccc3S(=O)c3ccc(C(=O)N4CCN(c5ccccn5)CC4)cc32)c1 (stereo not drawn),nt,?,2%,nt,nt,-25%,?,-7%
Cc1nc(Nc2ccc(Cl)cc2Cl)sc1C(=O)Nc1ccccc1,5%,-15%,-60%,-8%,-5.4%,-6%,?,-11%
Cc1ccccc1Cn1nc(C)c(NC(=O)C2(C)CC2(Cl)Cl)c1C (stereo not drawn),-1%,2%,31%,-1%,-1.3%,0%,0%,10%
COCCn1nnnc1C(c1cc2cc(C)ccc2[nH]c1=O)N1CCc2ccccc21 (stereo not drawn),-4%,0%,-7%,?,-8.2%,?,?,-4%
Cc1ccc2oc3c(c(=O)c2c1)C(c1cccc(O)c1)N(c1ccccn1)C3=O (stereo not drawn),-121%,nt,4%,?,-1.0%,?,3%,-9%
CCOc1ccc(/C=N/Nc2ccc(C(F)(F)F)cc2[N+](=O)[O-])cc1O,5%,?,18%,-3%,-6.1%,0%,?,9%
COC(=O)c1cc2sccc2n1Cc1c(C)cc(C)cc1C,nt,nt,nt,6%,-0.9%,-19%,?,nt
O=C(c1ccc(S(=O)(=O)NCc2ccco2)cc1)N1CCN(Cc2ccccc2F)CC1,nt,?,2%,nt,nt,-21%,-10%,1%
Cc1cc(C)c(S(=O)(=O)c2cccc(Cl)c2)c(Cl)n1,nt,-9%,-2%,nt,nt,-10%,-6%[46.1 µM],1%
O=C(Cn1cc(C(F)(F)F)ccc1=O)OCC(=O)c1ccc[nH]1,nt,2%,-4%,nt,nt,54%[activator],-7%,0%
CCOc1ccc(CNS(=O)(=O)c2ccc(-c3coc(C)n3)cc2)cc1OC,nt,-17%[46.1 µM],nt,?,-0.2%,?,nt,nt
Cc1ccc(NC(=O)CSc2n[nH]c(-c3ccncc3)n2)c(C)c1,0%,-1%[46.1 µM],0%,nt,nt,15%,-6%[46.1 µM],10%
COc1cc(NS(=O)(=O)c2ccc(NC(=O)c3cccnc3)cc2)ncn1,3%,4%[46.1 µM],1%,nt,nt,1%,-24%[46.1 µM],-10%
Cc1ccc(-c2c(C(=O)Nc3ccccc3F)oc(=O)c3ccccc23)cc1,nt,-16%[46.1 µM],nt,-1%,0.9%,-29%,nt,nt
Cc1ccc(-c2nnc3ccccc3c2C(=O)Nc2ccc(C)c(F)c2)cc1,nt,-2%[46.1 µM],nt,-17%,1.3%,28%,nt,nt
O=C(OCc1cc(=O)n2nc(-c3cccs3)sc2n1)c1ccc(Cl)cc1,nt,?,nt,12%,-2.9%,-10%,nt,nt
COc1ccc(N=c2scc(-c3ccc(S(=O)(=O)N4CCOCC4)cc3)n2CCCO)cc1,-51%,nt,2%,?,-5.6%,nt,nt,nt
c1ccc(Nc2nc(-c3cccnc3)cs2)nc1,4%,?,-5%,?,-0.7%,-2%,?,-10%
O=C1NCCN(Cc2ccc(Cl)c(F)c2)C1CC(=O)N1CCCCO1 (stereo not drawn),1%,nt,0%,nt,nt,14%,nt,15%
Cc1nc(-c2ccc(F)cc2)sc1CCNC(=O)C(=O)Nc1ccc2c(c1)OCO2,nt,4%[46.1 µM],nt,-2%,0.3%,-18%,nt,nt
Cn1ncc([N+](=O)[O-])c1C(=O)N1CCCCCC1,-4%,nt,1%,nt,nt,2%,nt,23%
CCCCN(C(=O)c1ccc(C#N)cc1)c1c(N)n(CCC)c(=O)[nH]c1=O,14%,8%[46.1 µM],1%,nt,nt,-4%,4%[46.1 µM],6%
CN(c1ncc(C(F)(F)F)cc1Cl)n1cc(C(N)=O)c2ccccc2c1=O,1%,8%,-12%,-5%,2.5%,0%,2%,5%
COc1ccc(C(C)=O)cc1CC(C(=O)c1ccc(C)cc1)N(C)C (stereo not drawn),4%,nt,11%,-4%,1.0%,-19%,8%,-11%
COc1ccc(NC(=O)c2cnn3c(C(F)(F)F)cc(-c4ccco4)nc23)cc1OC,10%,17%,2%,?,2.1%,-29%,1%[46.1 µM],0%
CCOc1ccc2c(c1)[nH]c(=S)n2C,-9%,nt,1%,nt,nt,-9%,nt,-9%
Cc1cc(C)c(S(=O)(=O)Nc2nnc(C3CCCCC3)s2)c(C)c1,-117%,nt,-23%,nt,nt,7%,nt,?
CCCc1cc2c(cc1NC(=O)c1ccccc1C)OCO2,-8%,-5%,-3%,-4%,9.2%,-12%,6%,35%
COc1ccccc1NC(=O)c1sc2ncn(Cc3ccccc3Cl)c(=O)c2c1C,nt,17%[46.1 µM],nt,-4%,4.6%,-10%,nt,nt
CN(C(=O)c1cccc(C#CC(C)(C)O)c1)C1CCCN(Cc2ccccc2F)C1 (stereo not drawn),-10%,nt,2%,nt,nt,-34%,nt,-3%
Cc1cccc(NC(=O)CCCN2C(=O)c3cccc4cccc(c34)C2=O)c1,-2%,-26%,3%,-3%,1.1%,4%,-28%,6%
CCN1CCN(C(=O)CCNC(=O)Cn2ccc3ccccc3c2=O)CC1,6%,-6%,-8%,3%,0.8%,6%,4%,-3%
CCOc1ccc(NS(=O)(=O)c2ccc(NC(=O)C3CC3)cc2)cc1,4%,0%,3%,nt,nt,-13%,-2%,-7%
C=CCNC(=S)N/N=C1\CCS(=O)(=O)c2ccccc21,3%,nt,1%,nt,nt,2%,nt,-12%
CSc1nc(N)nc(SCC(=O)OC(C)C)c1C#N,-5%,-3%,7%,-1%,-3.4%,-19%,13%,0%
COC(=O)c1ccc(Cl)c(NC(=O)CSc2nnc(-c3ccncc3)o2)c1,7%,7%,-3%,nt,nt,-22%,?,7%
CCNC(=S)NNC(=O)c1cc(-c2cc(C)ccc2C)nc2ccccc12,-1%,1%,12%,-2%,-2.5%,15%,15%,-9%
COc1ccc(C2c3ccc4ccccc4c3Oc3ncn(CCCN(C)C)c(=N)c32)cc1 (stereo not drawn),6%,?,-1%,nt,nt,1%,1.8µM*,9%
COc1ccc(/C=C/C(=O)OC(C)C(=O)c2ccccc2)cc1OC (stereo not drawn),nt,?,-8%,nt,nt,-8%,1%,17%
O=C1Nc2ccc(S(=O)(=O)N3CCOCC3)c3cccc1c23,7%,?,nt,-8%,0.2%,-7%,-1%,0%
COc1ccc(CC(=O)NCc2ccc3c(c2)OCO3)cc1,-14%,-7%,6%,-6%,5.7%,-15%,-1%,5%
CCC(C)(C)NC(=O)CN(C(=O)CNS(=O)(=O)c1ccc(F)cc1)c1ccc2c(c1)OCCO2,-15%,1%,6%,nt,nt,4%,-8%[46.1 µM],1%
COc1cc(/C=C/c2c([N+](=O)[O-])c(=O)n(C)c(=O)n2C)cc(OC)c1OC,-3%,?,-1%,3%,-3.5%,nt,-21%,5%
Cc1nnc(SCC(=O)NC(C)(C)C)n1NCc1c(F)cccc1Cl,1%,5%,0%,nt,nt,0%,0%[46.1 µM],1%
Cc1c(C)c2c(OCC(=O)NCc3ccncc3)cc3c(c2oc1=O)CCC(C)(C)O3,9%,nt,-11%,nt,nt,-6%,nt,-5%
Cc1csc(NC(=O)c2cc3c(s2)CCCCC3)n1,0%,2.2µM*,-26%,-23%,-8.2%,8.9µM*,?,-19%
Cc1cccc(N(C(=O)c2ccco2)C(C(=O)NC2CCCC2)c2cccnc2)c1C (stereo not drawn),4%,-6%[46.1 µM],-2%,nt,nt,1%,-27%[46.1 µM],-23%
COc1ccc(OC)c(/C=N/NC(=O)c2ccc(Cn3cc([N+](=O)[O-])cn3)o2)c1,?,7%,-14%,0%,-3.2%,-17%,?,13%
O=C(CCC(=O)c1ccc(F)cc1)NN1C(=O)NC2(CCCCC2)C1=O,nt,-5%,5%,nt,nt,-21%,-3%,4%
CCC1CCCCN1C(=O)CSc1nc(C)cc(C)n1 (stereo not drawn),1%,8%[46.1 µM],0%,nt,nt,-3%,11%[46.1 µM],6%
Cc1cccc(-n2c(O)c(C=Nc3ccccc3O)c3ccccc3c2=O)n1,-21%,17%,-2%,nt,nt,-21%,?,23%
COc1cccc(CNC(=O)Cn2ccc([N+](=O)[O-])n2)c1,21%,nt,5%,nt,nt,-12%,nt,0%
Nc1c(N=Nc2ccc(-c3ccc(N=Nc4cc(S(=O)(=O)O)c5ccccc5c4N)cc3)cc2)cc(S(=O)(=O)O)c2ccccc12,nt,?,nt,?,2.8µM*,nt,14µM*,nt
Cc1ccc2sc(NC(=O)C3CC3)nc2c1C,-43%,nt,-32%,nt,nt,37%[activator],nt,-7%
COCc1nnc(NC(=O)CCS(=O)(=O)c2ccccc2)s1,-11%,?,7%,nt,nt,-15%,-14%[46.1 µM],13%
N#C/C(=C\c1cc2c(cc1Br)OCO2)c1ccc(C(=O)O)cc1,-20%,nt,6%,nt,nt,-3%,nt,4%
CCOc1ccc(N2CC(NC(=O)c3ccc(Cl)cc3)CC2=O)cc1 (stereo not drawn),nt,13%[46.1 µM],nt,-3%,-1.7%,-10%,nt,nt
